High-throughput results: PubChem, National Center for Advancing Translational Sciences (NCATS)
D2 PAM – positive allosteric modulators of human D2 dopamine receptor | DiscoveRx D2 beta-arrestin cells, luminescence, 90 min; 100% = 57 uM dopamine signal | 360,000 tested, 0.23% active | P14416 | potentiation, % (no concentration beside the values); active = potentiation of 50% or more; inconclusive = 30% to 50%; inactive = 30% or less;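 also: compound concentration not given in the record; tested on top of an EC20 dose of dopamine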
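PathHunter beta-arrestin assay in DiscoveRx D2 cells. Compounds were added with an EC20 of dopamine (50 nM final) for 90 min at 37 deg C. Luminescence was read 1 h after detection reagent, with 57 uM dopamine as the EC100 control.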
PINK1 modulator – changes PINK1 expression | PINK1 immunofluorescence, high-content cytometry, 24 h | Potency, µM (series often up to 76.6 µM), inactives show at the highest dose activation (PINK1 increase), hits mostly activators | 410,000 tested, 0.2% active; active = well fitted activation curve with a large enough effect; inconclusive = small, poorly fitted or top-dose-only effect; inactive = flat fitted curve, though single readings scatter; cell line not stated here;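 also: potency is read from the fitted curve at half-maximal effect; % of control where 0% means no effect; nearly all actives have a fitted effect of over 65% in size; a mitochondrial uncoupler was the plate control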
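Decision-based qHTS: stable cells, 24 h exposure to five compound concentrations, CCCP as control. Fixed cells stained for PINK1 plus nuclear, mitochondrial and cell markers, cytometer read.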
D2 ag – activates the human D2 dopamine receptor; P14416; DiscoveRx PathHunter D2 beta-arrestin, luminescence, 90 min; 100% = 57 uM dopamine signal; activation, % (test concentration not listed); 360,000 tested, 0.084% active; AID 624465; in the data active = activation above about 40%; inconclusive = about 15% to 40%; inactive = below about 15%; also: compound concentration not given in the record; the text of the record calls up to 30% inactive
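Agonist mode: compounds alone added to overnight-plated D2 PathHunter cells for 90 min at 37 C, with 57 uM final dopamine (EC100) defining full response. Beta-arrestin recruitment detected by chemiluminescent reagent, read after 1 h at ambient temperature.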
CtBP-E1A inh – blocks the CtBP interaction with E1A; 340,000 tested, 0.49% active; AID 651724; activity change, % (test concentration not listed); AlphaScreen GST-E1A/His-CtBP binding, 1536-well; active compounds read low; control for the full effect not named in the record; in the data active means activity change below about -65%; inconclusive means about -30% to -65%; inactive means above about -30%; also: % is scaled to controls: 0 for no effect and ±100 for the full control effect
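In 5 uL wells, 23 nL compound meets equimolar GST-E1A and His-CtBP (5X stock 125 nM each) for 2 h, 37 °C. Beads (5X, 50 ug/mL) then 1 h, 37 °C, dark.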
TRPML1 agonist – activates the human TRPML1 channel; activation, % (concentration not given with the values); TRPML1-expressing cells, Ca2+ dye fluorescence, FDSS; host cell line not named in the record; reference of the full effect not given here; Q9GZU1; AID 624414; 410,000 tested, 0.12% active; in the data active = activation above about 50%; inconclusive = about 30% to 50%; inactive = below about 30%; also: 0% is about no effect; the text of the record puts the active cut at 80%
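In this qHTS format, compounds were pin-transferred onto Ca8-dye-loaded TRPML1-DL cells induced with Tet overnight, and intracellular Ca2+ fluorescence was recorded kinetically for 110 s after a 10 s baseline. A subsequent 4uM final 54-4 (EC80) addition followed by a second 110 s read served as the antagonist phase.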
Six1-Eya2 inh – blocks human Six1 binding to Eya2; AlphaScreen GST-Six1/His-Eya2 binding, biochemical; active compounds read low; control for the full effect not named in the record; activity change, % (no concentration beside the values); Q15475+O00167; 360,000 tested, 0.56% active; in the data active = activity change below about -65%; inconclusive = about -30% to -65%; inactive = above about -30%; also: % is scaled to controls: 0 for no effect and ±100 for the full control effect
Target sequence (O00167 whole entry, looked up): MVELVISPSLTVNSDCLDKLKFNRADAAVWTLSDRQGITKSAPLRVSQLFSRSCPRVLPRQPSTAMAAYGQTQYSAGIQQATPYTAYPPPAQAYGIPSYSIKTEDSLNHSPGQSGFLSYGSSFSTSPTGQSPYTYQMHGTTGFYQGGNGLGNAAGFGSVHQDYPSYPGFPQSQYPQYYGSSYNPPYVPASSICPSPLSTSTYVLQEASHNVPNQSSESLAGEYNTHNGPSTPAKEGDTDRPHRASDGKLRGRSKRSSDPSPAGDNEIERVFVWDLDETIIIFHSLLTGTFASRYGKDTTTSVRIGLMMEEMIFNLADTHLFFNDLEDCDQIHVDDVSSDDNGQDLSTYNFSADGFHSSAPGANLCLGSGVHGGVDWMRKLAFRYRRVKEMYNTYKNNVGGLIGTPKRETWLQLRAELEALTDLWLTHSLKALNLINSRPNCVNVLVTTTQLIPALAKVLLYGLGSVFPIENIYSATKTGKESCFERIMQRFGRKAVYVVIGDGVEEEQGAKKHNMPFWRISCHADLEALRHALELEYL
Target sequence (Q15475 whole entry, looked up): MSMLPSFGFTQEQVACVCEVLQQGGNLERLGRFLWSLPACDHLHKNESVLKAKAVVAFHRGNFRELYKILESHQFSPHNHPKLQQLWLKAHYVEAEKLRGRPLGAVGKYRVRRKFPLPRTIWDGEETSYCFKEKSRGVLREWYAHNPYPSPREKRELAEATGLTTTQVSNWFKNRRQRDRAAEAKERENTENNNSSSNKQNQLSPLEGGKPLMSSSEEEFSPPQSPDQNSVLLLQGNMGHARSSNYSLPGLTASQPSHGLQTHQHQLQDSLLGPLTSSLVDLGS
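AlphaScreen with GST-Six1 and His-Eya2 (5X mix: 250 nM and 500 nM), glutathione donor and nickel acceptor beads; buffer 50 mM Tris pH 8.0, 300 mM NaCl, 1 mM TCEP; 1 h at 37 C in the dark.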
* marks the source's active call; other numbers are inactive results; ? = inconclusive; · = not tested or not shown; & = joins results of further samples; [ ] = another dose, or the depositor's remark.

SMILES	D2 PAM	PINK1 modulator	D2 ag	CtBP-E1A inh	TRPML1 agonist	Six1-Eya2 inh
COc1ccc(OCC(O)CNS(=O)(=O)c2cccs2)cc1 (stereo not drawn)	5	0.1%	-0.6	-1	1.9	6
COc1ccc2cc(S(=O)(=O)N3CCCC(C)C3)ccc2c1 (stereo not drawn)	-5	1.9%	-4.6	12	0.8	-4
CCN(CC(=O)N1CCCCC1)S(=O)(=O)c1ccccc1	-5	1.0%	2.7	8	1.3	2
O=c1cc(CN2CCCC2)c2c(ccc3ccccc32)o1	-4	1.2%	-5.7	0	-0.8	-3
CCCCNC(=O)c1cn(C)c2ccc(S(=O)(=O)N3CC(C)CC(C)C3)cc2c1=O (stereo not drawn)	-5	-1.1%	-4.1	3	-0.1	5
Cc1nn(-c2ccc(F)cc2)c(Cl)c1/C=C/C(=O)OCC(=O)Nc1ccc(F)cc1F	-14	5.9%	0.1	-10	-0.6	5
COc1ccc(NC(=O)C2Cc3c(-c4cccc(F)c4)ccnc3O2)cc1 (stereo not drawn)	-13	8.0%	-1.6	0	-0.4	-9
CCCCn1c(=O)[nH]c(=O)c2c1nc(-c1ccc([N+](=O)[O-])cc1)n2CC	-2	4.4%	-2.9	8	2.7	-6
CCn1nc(NC(=O)C(C)C)c2cc3ccc(C)cc3nc21	-7	3.0%	-0.2	0	-0.3	-9
O=C(NCc1ccccc1)C1=C[C@H](C2CCCCC2)C[C@H](OCCCCO)O1	-2	3.0%	-0.8	6	-0.4	-2
COC(=O)c1ccccc1NC(=O)CSc1ccccc1	2	2.7%	-2.3	16	1.5	22
CC(C)C[C@H](NC(=O)NCCc1ccc(Cl)cc1)C(=O)O	-20	-1.0%	-2.7	1	0.1	6

Molecules listed so far containing sulfur, in the order listed:
SMILES	D2 PAM	PINK1 modulator	D2 ag	CtBP-E1A inh	TRPML1 agonist	Six1-Eya2 inh
COc1ccc(OCC(O)CNS(=O)(=O)c2cccs2)cc1 (stereo not drawn)	5	0.1%	-0.6	-1	1.9	6
COc1ccc2cc(S(=O)(=O)N3CCCC(C)C3)ccc2c1 (stereo not drawn)	-5	1.9%	-4.6	12	0.8	-4
CCN(CC(=O)N1CCCCC1)S(=O)(=O)c1ccccc1	-5	1.0%	2.7	8	1.3	2
CCCCNC(=O)c1cn(C)c2ccc(S(=O)(=O)N3CC(C)CC(C)C3)cc2c1=O (stereo not drawn)	-5	-1.1%	-4.1	3	-0.1	5
COC(=O)c1ccccc1NC(=O)CSc1ccccc1	2	2.7%	-2.3	16	1.5	22

Next part.
SMILES	D2 PAM	PINK1 modulator	D2 ag	CtBP-E1A inh	TRPML1 agonist	Six1-Eya2 inh
Cc1ccc(NC(=O)CN(C)C(=O)/C=C/c2cccc(F)c2)cc1	-13	-0.2%	-4.7	9	0.9	-3
CCC1(CC)NC(=S)NC1=S	-4	1.0%	0.5	-5	0.5	7
CCN(CC(=O)Nc1ccccc1C(F)(F)F)C(=O)c1cc(S(=O)(=O)N2CCCCCC2)ccc1OC	-6	-2.1%	-4.7	-4	-0.3	8
COC(=O)C1CCN(C(=O)COC(=O)c2oc3ccc(OC)cc3c2C)CC1	-3	-0.3%	2.1	4	0.1	3
NC(=O)CC(NC(=O)Cc1ccc(Br)cc1)c1ccc(NCc2ccccn2)c([N+](=O)[O-])c1 (stereo not drawn)	-10	-0.1%	-1.1	-27	0.3	?
CN(C)CCCNC(=O)C(=O)NCC(c1cccs1)S(=O)(=O)c1ccc(F)cc1 (stereo not drawn)	-8	-0.9%	-3.4	9	-0.3	2
CCOc1cc(CNCCSc2nnnn2C)cc(Br)c1OCc1ccccc1	-14	-1.0%	0.5	1	5.0	5
Clc1ccc(Oc2ncnc3oc(-c4ccccc4)cc23)cc1	-10	13%	-1.9	0	0.8	7
O=C(CCC1CCCN(c2ncccn2)C1)NCc1ccccc1F (stereo not drawn)	1	0.1%	-2.0	9	0.2	11
CCCCN(C(=O)COC(=O)c1ccccc1)c1c(N)n(CCC)c(=O)[nH]c1=O	-1	1.3%	-1.2	-1	1.6	9
CCn1cnc2c1c(=O)n(CC(=O)O)c(=O)n2Cc1ccccc1	-4	0.0%	-4.1	3	0.5	6
O=C(Cc1ccccc1)Nc1ncccn1	-8	3.4%	-1.2	-10	0.2	-4
CC(C)(C)n1ncc2c(=O)n(CC(=O)NCc3ccco3)cnc21	3	6.7%	-1.4	8	1.8	-1
Cc1cccc(C)c1OCC(O)CN (stereo not drawn)	-18	-1.7%	-0.4	4	0.8	10
CCS(=O)(=O)c1nnnn1-c1ccccc1S(C)(=O)=O	-4	26%[38.3 µM]	-2.3	-2	-0.1	1
COC(=O)CN1C(=O)C(C)(C)Oc2ccc(C(=O)Nc3cccc(OC)c3)cc21	0	1.6%	-1.0	-3	0.9	-3
C=CC(=O)Nc1cccc(Nc2nc(N[C@H]3CC[C@H](N(C)C)CC3)nc3c2ncn3C(C)C)c1	-16	-2.2%	-3.7	-5	1.1	4
COc1ccc(N2CCN(c3nc4ccccc4n3CC(=O)c3ccccc3)CC2)cc1	-17	·	-1.6	1	0.6	-4
COc1ccc(C2=NOC(C(=O)Nc3cccnc3Cl)C2)cc1 (stereo not drawn)	1	3.3%	-0.1	·	0.5	1
Fc1ccc(-c2ncc3ccccn23)cc1	-25	3.4%	-3.9	-7	-1.2	-7
CC(C)(C)C(=O)CSc1nnc(Nc2ccccc2)s1	-3	4.5%	-1.0	4	-0.7	-8
CCN(c1cccc(C)c1)S(=O)(=O)c1ccc2c(c1)CCN2C(C)=O	-36	5.0%	-0.7	2	-1.2	0
CC(C)(C)c1ccc(OCC(O)CN2CCN(C(=O)c3ccccc3)CC2)cc1 (stereo not drawn)	-49	-0.1%	5.4	·	·	-1
Cc1ccc(C(=O)O/N=C(\c2ccccc2)c2ccncc2)cc1	3	5.8%	0.9	0	1.0	-2
Cn1cc(CN2CCCC(C(=O)c3ccc(-c4ccccc4)c(F)c3)C2)cn1 (stereo not drawn)	-12	2.4%	-2.5	-8	-0.9	-6
O=C(CSc1ccccc1)NCCc1ccc(F)cc1	-2	-1.3%	-0.8	4	0.3	0
C=C(C)c1cccc(C(C)(C)NC(=O)Nc2ccc(C(C)=O)cc2)c1	-3	18%	-0.3	-3	0.9	-1
CCOC(=O)c1ccc(NC(=S)NCc2ccccc2)cc1	-1	?	1.8	-3	0.7	2
CCCCCn1c(SCCc2ccccc2)nc2c1c(=O)[nH]c(=O)n2C	-9	9.7%	-2.9	9	0.8	5
O=C(Cn1cc(C(=O)C(F)(F)F)c2ccccc21)NCc1ccco1	-5	0.9%	-1.4	-13	2.1	-9
Cn1c(CNc2nc(-c3ccccc3)cs2)nnc1SCC(=O)c1ccccc1	-31	3.3%	-0.3	?	1.8	-74*
CC1(C)CC(=O)/C(=C(\O)c2ccccc2)C(=NCCO)C1	1	8.7%	2.2	0	0.0	2
Cc1cc2nc(C)n(CCCNC(=O)Nc3ccc(F)cc3)c2cc1C	-12	-1.0%	0.4	4	-0.6	4
Cc1ccc(-c2nc(CSCC(=O)Nc3cc(C)on3)c(C)o2)cc1	-2	2.6%	-3.7	4	-1.4	-6
N=c1c(-c2nc3ccccc3[nH]2)cc(C(=O)c2cccs2)nn1-c1ccccc1	-4	-1.5%	0.7	-1	2.5	-2
O=c1[nH]c(SCc2ccc(OC(F)(F)F)cc2)nc2c1CCC2	-4	0.8%	-4.3	2	-0.9	7

Compound profiles (already shown).
Shown for CCCCCn1c(SCCc2ccccc2)nc2c1c(=O)[nH]c(=O)n2C = D2 PAM: -9; PINK1 modulator: 9.7%; D2 ag: -2.9; CtBP-E1A inh: 9; TRPML1 agonist: 0.8; Six1-Eya2 inh: 5
Shown for C=C(C)c1cccc(C(C)(C)NC(=O)Nc2ccc(C(C)=O)cc2)c1 = D2 PAM: -3; PINK1 modulator: 18%; D2 ag: -0.3; CtBP-E1A inh: -3; TRPML1 agonist: 0.9; Six1-Eya2 inh: -1

The list continues:
SMILES	D2 PAM	PINK1 modulator	D2 ag	CtBP-E1A inh	TRPML1 agonist	Six1-Eya2 inh
CCN1CCN(Cc2ccc(NC(=O)c3ccc(C)c(NC(=O)C[C@@H]4NC(=O)[C@H](Cc5ccccc5)NC4=O)c3)cc2C(F)(F)F)CC1	-6&-18	1.0%&-1.0%	-2.8&-1.4	-3&2	0.0&-0.7	-3&4
COc1ccc([C@H]2C[C@@H](O)[C@H](n3cc(C4CC4)nn3)CN2C(=O)C2CCCCC2)cc1	-4	3.1%	-5.5	-25	0.2	1
O=C(N/N=C/c1ccccc1)c1cc(=O)[nH]c2ccccc12	-5	5.0%	3.0	5	1.6	2
Cc1ccc(CNC(=O)CSc2nnc3c(n2)[nH]c2ccc(F)cc23)cc1	-10	5.1%	-2.4	0	0.2	-5
CCOc1ccc(C(=O)Nc2cc(Cl)ccc2-n2cncn2)cc1OC	-12	0.1%	0.3	3	-0.7	1
CC(=O)[C@H]1CC[C@H]2[C@@H]3CC=C4C[C@@H](OS(=O)(=O)O)CC[C@]4(C)[C@H]3CC[C@]12C	19	0.5%	0.7	1	-0.8	-27
CCOC(=O)C1(CC2CCCCO2)CCN(Cc2nc3ccccc3nc2C)CC1 (stereo not drawn)	-18	1.4%	-5.2	-11	-0.2	0
CCN(CC)S(=O)(=O)c1ccc(C(=O)NCCOC(=O)c2ccc(F)cc2F)cc1	-5	2.2%	0.5	-13	-0.3	-2
Cc1cc2c(c(=O)n1Cc1cccnc1)C(Cc1ccccc1)C(C#N)=C(N)O2 (stereo not drawn)	-10	-1.5%	-2.2	4	0.0	2
O=C(OCC#CCSc1nnc(-c2ccc(Br)cc2)o1)c1ccco1	-6	0.7%	0.4	16	0.5	0
CN(C)CCNc1nc(-c2ccccc2CO)c2sccc2n1	-20	1.0%	-5.8	2	-0.6	1
COc1ccc(S(=O)(=O)N2CCn3c2nc2ccccc23)cc1	-2	13%	-1.2	0	-0.5	-1
Cc1ccc(NC(=O)NCc2ccc3c(c2)OCO3)cc1C	-2	9.0%	0.0	2	0.9	7
COc1ccc(NC(=O)c2cc(F)c(F)cc2Cl)cc1Cl	-1	8.7%	0.6	14	0.8	7
Cc1cccc(OCC(=O)N(Cc2cccs2)C2CCS(=O)(=O)C2)c1 (stereo not drawn)	-7	-1.1%	-1.4	-1	-0.4	-2
C[C@H](NC(=O)[C@@H]1CCCN1C(=O)OC(C)(C)C)c1ccccc1	·	1.3%	·	9	-0.8	6
COCCCNc1nc2c(c(=O)n(Cc3ccc(OC)cc3)c(=O)n2C)n1C	1	0.5%	0.8	-10	·	-20
Cc1cc(C)n2ncc(/C(N)=N/OC(=O)Nc3ccccc3)c2n1	0	-0.7%	-4.8	-2	0.2	-12
Cc1ccccc1NC(=O)CCC(=O)N/N=C/c1c[nH]c2ccccc12	1	-0.8%	8.5	0	1.5	21
Cc1nc(NC(=S)NC(=O)c2ccccc2)sc1C	-9	11%	-3.1	-23	·	1
COc1ccccc1/C=C/C(=O)Nc1cccc(C(C)=O)c1	-1	1.1%	-1.5	-6	0.6	6
COc1cc(C)c2occ(/C(C)=N\O)c2c1	-3	1.7%	-3.5	-1	1.3	-1
